# CtBP-E1A inh: CtBP/E1A binding inhibition; AlphaScreen GST-E1A/His-CtBP binding, 1536-well; active compounds read low; control for the full effect not named in the record; activity change, % (test concentration not listed); 0.49% of 340,000 active; in the data active means activity change below about -65%; inconclusive means about -30% to -65%; inactive means above about -30%; note: % is set by controls: 0 for no effect and ±100 for the full control effect
#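 Homogeneous bead-based format: GST-tagged E1A captured on glutathione donor beads, His-tagged CtBP on nickel acceptor beads; compounds precede bead addition by 2 h at 37 °C.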
# TRPML1 blocker: human mucolipin-1 channel inhibition; AID 624415; 0.02% of 390,000 active; TRPML1-inducible cells, Ca2+ dye fluorescence, FDSS; active compounds read low; inhibition of EC80 agonist-evoked calcium signal; activity change, negative = inhibition, % (concentration not given with the values); Q9GZU1; in the data active means activity change below about -50%; inconclusive means about -30% to -50%; inactive means above about -30%;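 note: stimulus is agonist 54-4 at its EC80 concentration; % is set by controls: 0 for no effect and ±100 for the full control effect; the text of the record puts the active cut at -80%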
#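 Calcium fluorescence in TRPML1-DL cells induced overnight with Tet: a 110 s read after compound pin addition, then a 110 s antagonist read after challenge with 54-4 at 4 uM final (EC80).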
# TRPV1 potentiator: enhances activation of the human vanilloid receptor TRPV1; 0.02% of 320,000 active; AID 540277; TRPV1-expressing cells, Fluo-8 calcium influx, capsaicin EC20 potentiation; host cell line not named in the record; control for the full effect not named in the record; Q8NER1; potentiation, % at 8.33 µM; active means potentiation above 80%; inconclusive means 30% to 80%; inactive means below 30%; note: 0% is about no effect
# Target sequence (Q8NER1 whole entry, looked up): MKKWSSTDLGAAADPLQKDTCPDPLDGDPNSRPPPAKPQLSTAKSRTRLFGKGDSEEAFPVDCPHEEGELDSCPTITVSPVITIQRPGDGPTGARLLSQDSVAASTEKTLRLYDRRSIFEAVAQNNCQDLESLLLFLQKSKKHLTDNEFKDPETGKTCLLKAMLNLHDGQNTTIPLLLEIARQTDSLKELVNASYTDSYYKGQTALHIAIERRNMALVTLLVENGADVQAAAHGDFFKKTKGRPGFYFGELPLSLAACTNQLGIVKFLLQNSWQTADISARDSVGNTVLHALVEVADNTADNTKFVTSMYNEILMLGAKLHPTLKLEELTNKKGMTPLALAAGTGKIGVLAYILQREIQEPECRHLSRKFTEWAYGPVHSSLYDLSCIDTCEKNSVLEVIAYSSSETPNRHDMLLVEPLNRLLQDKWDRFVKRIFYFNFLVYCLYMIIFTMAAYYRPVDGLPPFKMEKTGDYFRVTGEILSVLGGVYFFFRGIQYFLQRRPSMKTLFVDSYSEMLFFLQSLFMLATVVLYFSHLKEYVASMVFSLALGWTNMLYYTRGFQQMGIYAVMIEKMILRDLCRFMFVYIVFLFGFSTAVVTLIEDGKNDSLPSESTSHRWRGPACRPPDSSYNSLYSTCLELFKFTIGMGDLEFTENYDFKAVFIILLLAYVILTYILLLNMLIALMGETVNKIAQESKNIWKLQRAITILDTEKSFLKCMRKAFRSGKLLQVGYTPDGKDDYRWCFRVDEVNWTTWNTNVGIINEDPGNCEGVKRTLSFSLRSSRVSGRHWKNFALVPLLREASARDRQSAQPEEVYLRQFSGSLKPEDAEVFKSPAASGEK
#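 TRPV1-expressing cells were cultured overnight at 35.5C and loaded with Fluo-8 calcium dye for 40 to 90 min at room temperature. After a 10 s baseline, compound was added and calcium influx was read kinetically for 3 min (ex 480/em 520 nm).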
# Six1-Eya2 blk: inhibitors of human Six1/Eya2 interaction; AlphaScreen GST-Six1/His-Eya2 binding, biochemical; active compounds read low; control for the full effect not named in the record; Q15475+O00167; activity change, % (test concentration not listed); 0.56% of 360,000 active; in the data active = activity change below about -65%; inconclusive = about -30% to -65%; inactive = above about -30%; note: % is set by controls: 0 for no effect and ±100 for the full control effect
#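 AlphaScreen luminescence read after one hour at 37 °C in darkness. Pin-transferred compounds met GST-Six1 and His-Eya2 protein (5X stock 250 nM/500 nM) plus glutathione donor and Ni-chelate acceptor beads (5X, 50 ug/mL).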
# D2 potentiator: human D2 receptor positive allosteric modulation; DiscoveRx D2 beta-arrestin cells, luminescence, 90 min; 100% = 57 uM dopamine signal; potentiation, % (concentration not given with the values); 0.23% of 360,000 active; AID 624464; active = potentiation of 50% or more; inconclusive = 30% to 50%; inactive = 30% or less;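 note: compound concentration not given in the record; tested on top of an EC20 dose of dopamine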
#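 PathHunter beta-arrestin assay in DiscoveRx D2 cells. Compounds were added with an EC20 of dopamine (50 nM final) for 90 min at 37 deg C. Luminescence was read 1 h after detection reagent, with 57 uM dopamine as the EC100 control.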
# TRPML1 ag: agonists of human TRPML1 channel | TRPML1-expressing cells, Ca2+ dye fluorescence, FDSS; host cell line not named in the record; reference of the full effect not given here | activation, % (test concentration not listed) | 0.12% of 410,000 active | Q9GZU1 | AID 624414; in the data active = activation above about 50%; inconclusive = about 30% to 50%; inactive = below about 30%; note: 0% is about no effect; the text of the record puts the active cut at 80%
#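 Calcium fluorescence on an FDSS kinetic reader gave the read-out. Tet-induced TRPML1-DL cells were plated overnight, dye-loaded (Ca8 with quencher, 45-90 min, room temperature, dark), then read 110 s after compound addition, and again 110 s after 4uM final 54-4 (EC80).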
# Active calls of the source: *; ? = inconclusive; nt = no result given; & = joins results of further samples.
SMILES,CtBP-E1A inh,TRPML1 blocker,TRPV1 potentiator,Six1-Eya2 blk,D2 potentiator,TRPML1 ag
O=C(COc1ncnc2sccc12)Nc1ccc2c(c1)OCCO2,1,39,-1,-2,7,-0.1
CC(=O)Nc1ccc(N/C=C2/CCCC2=O)cc1,-10,64,7,-9,-6,-0.3
Cc1nnc(SCC(N)=O)n1CCc1ccccc1,13,-3,?,6,14,0.1
COc1cc(C2CC(=O)Oc3cc(O)ccc32)cc(OC)c1OC (stereo not drawn),4,-2,nt,2,-5,-0.6
COc1ccc(CN2CCCC(C(=O)N(C)Cc3ccccc3)C2)cc1OC (stereo not drawn),-7,-4,2,10,-31,0.4
Cc1cc(C(=O)Nc2cccc(S(=O)(=O)N3CCCC3)c2)c2ccccc2n1,nt,-16,-9,-7,-4,-1.5
COc1cc(-c2ccc3oc(-c4ccsc4)cc(=O)c3c2)cc(OC)c1OC,-12,-4,nt,-1,2,-0.4
CC(C)(C)NC(=O)c1ccc(Cn2cc(C(F)(F)F)ccc2=O)cc1,1,7,1,4,-3,-0.7
CCc1ccc(N(C(=O)C(F)(F)F)C(C(=O)NC2CCCCC2)c2ccncc2)cc1 (stereo not drawn),13,23,-13,-1,5,0.2
O=C(Cn1cnc2ccccc2c1=O)OCC(=O)c1ccc2c(c1)OCCO2,-1,-1,19,4,4,1.2
O=C(CSC1=NS(=O)(=O)c2cc(F)ccc2N1)NCc1ccccc1,-13,27,?,3,-7,0.8
Cc1c(C=O)c2ccccc2n1CCOc1ccccc1,-4,10,-5,8,-2,0.9
COC(=O)CNC(=O)c1cccc(-c2ccc(OC)cc2)c1,-2,-6,-5,-6,-7,-0.5
CCCS(=O)(=O)NC(=O)C1(C)CCCN(C(=O)C2(c3ccc(Cl)cc3)CCCC2)C1 (stereo not drawn),4,-15,nt,6,-9,-0.1
COC(=O)c1c(NC(=O)C2C3CCC(O3)C2C(=O)O)sc2c1CCCCCC2 (stereo not drawn),3,-10,2,-1,-9,0.1
CCc1ccccc1NC(=O)Nc1cccn(Cc2ccccc2F)c1=O,-21,12,4,-23,-8,5.3
O=C(Cc1cccs1)Nc1cccc([N+](=O)[O-])c1,0,-23,-21,13,-14,1.5
CCOc1ccccc1NC(=O)CN1C(=O)COc2ccc(S(=O)(=O)N3CCOCC3)cc21,-12,-5&-6,8,4,-16,0.0&2.4
OC1CCCN(CC(O)COC(c2ccc(F)cc2)c2ccc(F)cc2)C1 (stereo not drawn),10,-11,-1,-6,-11,1.6
c1ccc(C2=NN(c3ccccc3)C(c3ccco3)C2)cc1 (stereo not drawn),66,-20,12,68,-4,1.3
CCOC(=O)C1CCN(C(=O)COC(=O)CNC(=O)c2ccc(C(C)(C)C)cc2)CC1,10,-3,nt,7,-19,-0.3
COC(=O)c1ccc(OCC(O)CN(CCO)CCO)cc1 (stereo not drawn),4,5,4,2,-12,-0.6
O=c1[nH]c(=O)n(Cc2ccccc2)c2c1CCC2,5,4,-4,-2,-8,-0.1
CCN(CC)C(=O)Cn1c(=O)n(-c2ccccc2)c(=O)c2c3c(sc21)CCC3,6,-15&-5,-2,0,-9,0.7&-0.2
Cc1nn(C)cc1CNC(=O)Nc1ccc(Cl)cc1,-1,-19,-12,0,-13,2.1
CCC(c1nnnn1Cc1ccccc1)N1CCN(C/C=C/c2ccccc2)CC1 (stereo not drawn),1,nt,nt,-8,-9,-0.5
NC(=O)COc1ccc(/C=C2\C(=O)ON=C2c2ccccc2)cc1,7,2,7,-2,-9,-0.1
O=C(NCc1ccccc1)c1cc(-c2ccncc2)nc2ccccc12,-18,13,-7,5,-4,1.4
O=C(NN1CCOCC1)c1ccccc1,-11,-6,-19,-6,1,0.0
CCOc1ccc(-n2c(=S)sc3c(=O)[nH]c(SCC(=O)NC(C)CC)nc32)cc1 (stereo not drawn),10,3,-5,-6,0,0.7

# Whole records from above.
# O=C(NCc1ccccc1)c1cc(-c2ccncc2)nc2ccccc12 in the list: CtBP-E1A inh = -18; TRPML1 blocker = 13; TRPV1 potentiator = -7; Six1-Eya2 blk = 5; D2 potentiator = -4; TRPML1 ag = 1.4
# CC(=O)Nc1ccc(N/C=C2/CCCC2=O)cc1 in the list: CtBP-E1A inh = -10; TRPML1 blocker = 64; TRPV1 potentiator = 7; Six1-Eya2 blk = -9; D2 potentiator = -6; TRPML1 ag = -0.3
# O=C(NN1CCOCC1)c1ccccc1 in the list: CtBP-E1A inh = -11; TRPML1 blocker = -6; TRPV1 potentiator = -19; Six1-Eya2 blk = -6; D2 potentiator = 1; TRPML1 ag = 0.0

# A different layout for some results above:
SMILES: CCOC(=O)C1CCN(C(=O)COC(=O)CNC(=O)c2ccc(C(C)(C)C)cc2)CC1
  CtBP-E1A inh: 10; TRPML1 blocker: -3; TRPV1 potentiator: nt; Six1-Eya2 blk: 7; D2 potentiator: -19; TRPML1 ag: -0.3
SMILES: CCC(c1nnnn1Cc1ccccc1)N1CCN(C/C=C/c2ccccc2)CC1 (stereo not drawn)
  CtBP-E1A inh: 1; TRPML1 blocker: nt; TRPV1 potentiator: nt; Six1-Eya2 blk: -8; D2 potentiator: -9; TRPML1 ag: -0.5
SMILES: O=C(NCc1ccccc1)c1cc(-c2ccncc2)nc2ccccc12
  CtBP-E1A inh: -18; TRPML1 blocker: 13; TRPV1 potentiator: -7; Six1-Eya2 blk: 5; D2 potentiator: -4; TRPML1 ag: 1.4

# (listing goes on)
SMILES,CtBP-E1A inh,TRPML1 blocker,TRPV1 potentiator,Six1-Eya2 blk,D2 potentiator,TRPML1 ag
CCn1c(SCC(=O)c2[nH]c(C)c(C(C)=O)c2C)nnc1-c1cccs1,1,-7,6,-1,3,0.0
CC(C)C1C(=O)N(Cc2cn(Cc3ccco3)nn2)CCS(=O)(=O)N1Cc1ccc(-c2cccc(N(C)C)c2)cc1 (stereo not drawn),-17,-22,nt,-26,5,1.5
NC(=O)c1ccc(NC(=O)CCN2C(=O)c3ccccc3C2=O)cc1,3,-2,-20,-15,-12,0.3
O=C1CCCC[C@@H](CO)[C@H](O)C[C@H](c2ccccc2)O1,-8,nt,nt,-10,nt,-0.1
O=C(CSc1nnnn1C1CCCCC1)Nc1cccc(NC(=O)c2ccco2)c1,-4,-15,-2,-3,-4,-1.5
COc1ccc(N/C=C/C(=O)c2cc(OC)c(OC)c(OC)c2)cc1,-11,8,-5,-6,-12,0.2
COC(=O)Nc1ccc2ccc3c(NC(=O)OC)ccc4ccc1c2c43,6,9,nt,1,5,-0.3
O=C(c1ccc(CSc2ccc(Cl)cc2)cc1)N1CCCC1,nt,12,0,5,-3,1.4
CC[C@]12c3[nH]c4cc(CCC(=O)N(C)C)ccc4c3CCN1C(=O)[C@@H](CC(=O)NCc1ccc(OC)c(OC)c1)C[C@@H]2C(=O)N1CCN(C(=O)C2CC2)CC1,0,-22,nt,9,4,0.9
O=C(O)/C=C\C(=O)Nc1ccccc1C(=O)NCc1ccccc1,-13,4,11,-22,17,0.6
O=C(NN=C1c2ccccc2-c2ccccc21)c1ccccn1,?,31,-20,-30,-14,0.7
CCOC(=O)CSc1nc(N)nc(C)c1Cl,-8,-1,12,-2,-3,-0.5
COc1ccc(-c2nn(-c3ccccc3)cc2C2CC(c3cccs3)=NN2C(=O)CCC(=O)O)cc1 (stereo not drawn),4,16,29,4,-8,0.2
COc1ccc(NC(=O)CN(C)S(=O)(=O)c2ccc3c(c2)CC(C)N3C(C)=O)c(OC)c1 (stereo not drawn),1,6,1,-9,-3,-0.5
Cn1c(=O)[nH]c(=O)c2c1nc(OC(=O)c1ccccc1)n2CC(O)COc1ccccc1 (stereo not drawn),-2,0,-3,-4,-5,0.1
CN1C(=O)C(C)(C)c2cc(S(=O)(=O)NCC3CCC(C(=O)NCc4ccccc4)CC3)ccc21 (stereo not drawn),-7,-1,-13,-14,-10,-0.5
COc1ccccc1-c1noc2c1C(=O)N(Cc1cn(-c3ccccc3)nn1)CC2,-20,42,nt,-29,-4,0.7
NCc1csc(Nc2ccc(C(=O)c3ccccc3)cc2)n1,-1,nt,nt,-4,-11,-0.2
COc1ccc(OC)c2c1sc(=NC(=O)C(C)C)n2C,-4,79,-2,4,-6,0.7
Cc1ccc(N(C(=O)c2ccncc2)C2C=CS(=O)(=O)C2)cc1 (stereo not drawn),0,-12,-4,7,-6,0.2
COc1ccc(N(CCC#N)S(=O)(=O)c2ccc(Cl)cc2)cc1,-1,22,4,4,-2,0.2
Cc1ccc(C(=O)N/C(=C\c2cn(C)c3ccccc23)C(=O)NCCCN2CCOCC2)cc1,-10,-3,5,3,-2,-0.1
O=C(NC(=S)NNC(=O)c1ccccc1O)c1cccs1,-95*,2,15,-82*,-1,8.6
O=C(O)/C=C/C(=O)NC1CC1,12,9,-12,11,-1,-0.1
Cc1ccccc1NC(=O)CCN1CCCC1,9,9,-10,11,-10,0.8
Cc1ccc(NC(=O)CN(C)C(=O)COC(=O)c2nc3nccc(C)n3n2)cc1,nt,-2,8,7,-2,0.4
CCCN(CC(=O)Nc1ccccc1C)C(=O)c1ccc(S(=O)(=O)N2CCC(C)CC2)cc1,-1,19,0,-2,-31,-1.0
Cc1ccc(CNC(=O)c2ccc(Cl)c(S(=O)(=O)N3CCCCC3)c2)cc1,1,-2,-1,5,-1,1.6
CCOC(=O)c1c(NC(=O)c2ccccc2C)sc2c1CC(C)(C)OC2,2,16,0,0,-9,2.2
CCCCCC(=O)N1C[C@H](n2cc(-c3ccc(F)cc3)nn2)[C@@H](O)C[C@@H]1c1ccc(C)cc1,-3,-8,nt,-4,1,-0.5
CC1=CC(C)(C)NC(=S)N1c1cccc(C)c1,0&33,-6&65,-1,-6&-3,-6&-1,0.1&-0.2
CCn1c(N2CCN(C(=S)NC)CC2)nc2ccccc21,6,28,6,2,-15,0.0
Cc1ccc2[nH]c3c(=O)n(Cc4ccccn4)cnc3c2c1,1,-6,-6,0,-4,0.4
CC1CC1C(=O)OCC(=O)NCc1ccccc1Cl (stereo not drawn),4,-13,8,5,-14,-0.9
Cc1ccc2nc(C)cc(NCCO)c2c1,-10,-3,2,-11,-7,0.8
Cn1cccc1Cc1nnc(SCC(=O)Nc2cccc(F)c2)n1-c1ccc(F)cc1,-26,-2,-15,-14,-6,0.8
CC(c1ccccc1)N1CCn2c(nc3cc(NC(=O)NC4CCCCC4)ccc32)C1 (stereo not drawn),-12,2,0,-2,-3,1.9
Cc1ccc(S(=O)(=O)N2CCCOC2CNC(=O)C(=O)NCc2ccccn2)cc1 (stereo not drawn),4,15,-1,-1,-10,0.0

# This is a random part of the collection; overall some 0.95% were active at least once.
